# gsp antagonist: gsp mutant antagonism; gsp-mutant cells, cAMP HTRF, 30 min; control for the full effect not named in the record; Potency, µM (doses to about 76.9 µM), for inactives: top-dose activity change, negative = inhibition, most hits filed as inhibitors; actives 0.4% (n = 340,000); active = falling curve of any shape with a large fitted effect; inconclusive = falling curve, mostly with a smaller effect; inactive = flat or rising curve; cell line not stated here;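 further: intracellular cAMP measured with PDE inhibitor Ro 20-1724 present during compound exposure; potency means the concentration at half of the fitted maximal effect; on the % scale 0 is the no-effect control and ±100 the full control effect; nearly all actives have a fitted effect of over 65% in size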
#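 Cells, 2000/well, grown 16–24 h in DMEM 10% FBS with 0.5 mg/ml G418, then compounds plus […] (300 uM addition stock), 30 min at 37C. cAMP read by HTRF (cAMP-d2 and anti-cAMP antibody-K in lysis buffer) after 30 min RT.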
# gsp agonist: agonists of gsp mutant (McCune-Albright syndrome) | actives 0.13% (n = 340,000) | AID 624287 | Potency, µM (titrated, usually from 76.9 µM), without a hit: top-dose activation (cAMP increase), actives largely listed as activators | gsp mutant cells, cAMP HTRF, 30 min; control for the full effect not named in the record; active = well fitted activation curve with a large enough effect; inconclusive = small, poorly fitted or top-dose-only effect, or another doubt; inactive = no such curve, though single readings can be large or run the other way; cell line not stated here;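 further: phosphodiesterase inhibitor Ro 20-1724 added with compounds to block cAMP breakdown; potency means the concentration at half of the fitted maximal effect; nearly all actives have a fitted effect of over 60% in size; about a fifth of the inactives were tested at one dose only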
#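 Cells stably selected in G418 were plated at 2000/well, grown 16-24 hr, then given compounds in DMSO with the PDE inhibitor […] (300 uM solution added) for 30 min at 37C; cAMP was read by HTRF.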
# Menin MLL FP FL: displaces fluorescein MLL peptide from human menin | Fluorescence polarization, fluorescein-MLL peptide displacement from menin | FP activity change, % at 61.4 µM | 290,000 tested, under 10 active | AID 1766; inconclusive = falling polarisation curve, or a change in total fluorescence; inactive = total fluorescence flat and polarisation flat or rising; no compound was filed as active; the % refers to the polarisation; negative = inhibition;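 further: % of control where 0% means no effect; inhibitors lower the polarisation; unlabelled MLL peptide was the positive control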
# Sfp inh: blocks B. subtilis Sfp PPTase activity | Biochemical Sfp PPTase activity, qHTS | Potency, µM, for the others: max response, negative = inhibition, most hits filed as inhibitors | actives 3.5% (n = 310,000); active means well fitted inhibition curve with a large enough effect; inconclusive means small, poorly fitted or top-dose-only effect, or another doubt; inactive means no such curve, though single readings can be large or run the other way;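 further: the enzyme is Sfp with the accession as filed and its product quenches rhodamine fluorescence; potency means the concentration at half of the fitted maximal effect; 0% = enzyme reaction without inhibitor and -100% = no enzyme wells; top concentration of the series not given in the record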
#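 Step 1, compound plus 15 nM Sfp-PPTase, 15 min, room temperature. Step 2, add rhodamine-CoA (5 uM) and BHQ-2-YbbR (12.5 uM). Step 3, read 525/598 nm fluorescence at 0 and 30 min.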
# TRPV1 PAM: enhances activation of the human vanilloid receptor TRPV1; Q8NER1; TRPV1-expressing cells, Fluo-8 calcium influx, capsaicin EC20 potentiation; host cell line not named in the record; control for the full effect not named in the record; potentiation, % at 8.33 µM; actives 0.02% (n = 320,000); active means potentiation above 80%; inconclusive means 30% to 80%; inactive means below 30%; further: 0% is about no effect
# Target sequence (Q8NER1 whole entry, looked up): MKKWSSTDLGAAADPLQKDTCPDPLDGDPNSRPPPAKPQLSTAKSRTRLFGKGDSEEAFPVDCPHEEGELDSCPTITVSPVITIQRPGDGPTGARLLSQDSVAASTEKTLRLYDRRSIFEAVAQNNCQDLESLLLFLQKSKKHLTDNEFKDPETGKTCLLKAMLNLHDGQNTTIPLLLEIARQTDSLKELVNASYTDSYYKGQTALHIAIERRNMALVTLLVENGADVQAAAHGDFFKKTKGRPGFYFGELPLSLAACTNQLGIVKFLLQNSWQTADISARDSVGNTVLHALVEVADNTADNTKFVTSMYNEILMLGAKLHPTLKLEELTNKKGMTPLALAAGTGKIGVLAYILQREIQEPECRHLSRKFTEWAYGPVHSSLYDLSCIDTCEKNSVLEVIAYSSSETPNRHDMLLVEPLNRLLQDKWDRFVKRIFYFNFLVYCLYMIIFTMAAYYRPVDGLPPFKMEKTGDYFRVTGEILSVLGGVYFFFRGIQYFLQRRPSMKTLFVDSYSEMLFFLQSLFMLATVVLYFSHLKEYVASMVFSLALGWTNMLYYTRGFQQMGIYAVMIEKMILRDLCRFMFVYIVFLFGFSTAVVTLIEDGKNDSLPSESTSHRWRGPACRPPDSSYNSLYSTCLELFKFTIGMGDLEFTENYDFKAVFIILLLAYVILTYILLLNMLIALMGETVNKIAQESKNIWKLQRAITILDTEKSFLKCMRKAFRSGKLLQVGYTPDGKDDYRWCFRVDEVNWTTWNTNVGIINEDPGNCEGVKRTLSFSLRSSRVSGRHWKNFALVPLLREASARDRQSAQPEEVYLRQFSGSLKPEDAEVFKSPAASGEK
#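 TRPV1-expressing cells were cultured overnight at 35.5C and loaded with Fluo-8 calcium dye for 40 to 90 min at room temperature. After a 10 s baseline, compound was added and calcium influx was read kinetically for 3 min (ex 480/em 520 nm).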
# D2 PAM: potentiates the human D2 dopamine receptor allosterically. DiscoveRx D2 beta-arrestin cells, luminescence, 90 min; 100% = 57 uM dopamine signal. P14416. AID 624464. actives 0.23% (n = 360,000). potentiation, % (no concentration beside the values); active = potentiation of 50% or more; inconclusive = 30% to 50%; inactive = 30% or less;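 further: compound concentration not given in the record; tested on top of an EC20 dose of dopamine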
#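 PathHunter beta-arrestin assay in DiscoveRx D2 cells. Compounds were added with an EC20 of dopamine (50 nM final) for 90 min at 37 deg C. Luminescence was read 1 h after detection reagent, with 57 uM dopamine as the EC100 control.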
# ClpP mod: qHTS Assay for Activators of ClpP; ATP-dependent Clp protease proteolytic subunit (Bacillus subtilis (strain 168)), P80244; purified B. subtilis ClpP, FRET peptide cleavage, 20 min; Potency, µM (doses to about 57.5 µM), for inactives: at the top dose activity change, negative = active; actives 1.9% (n = 340,000); AID 651965, 2013; active = well fitted falling curve with a large enough effect; inconclusive = small, poorly fitted or top-dose-only effect; inactive = no such curve, though single readings can be large or run the other way; further: potency means the concentration at half of the fitted maximal effect; the source files actives as falling curves though it sought activators and does not explain the sign; nearly all actives have a fitted effect of over 65% in size; many hits overshoot -100%
# Target sequence (P80244 whole entry, looked up): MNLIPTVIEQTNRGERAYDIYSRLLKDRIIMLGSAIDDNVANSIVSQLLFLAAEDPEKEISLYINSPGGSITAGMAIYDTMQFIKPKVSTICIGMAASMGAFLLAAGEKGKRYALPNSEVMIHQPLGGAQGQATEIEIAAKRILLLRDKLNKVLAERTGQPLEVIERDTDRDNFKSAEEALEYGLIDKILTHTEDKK
#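 Buffer: 100 mM Tris/HCl pH8, 100 mM KCl, 0.05% low protease BSA, 2.5% glycerol, 0.01% Tween-20. ClpP 10 microg/mL final; 20 min RT; delta FRET normalized to ADEP and DMSO controls.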
# An asterisk follows results filed as active; ? = inconclusive; / = no result given; & = joins results of further samples; [ ] = remark or other dose. No enrichment for hits. About 5.1% of those tested had a hit in this group.
no.	molecule	Sfp inh	gsp agonist	gsp antagonist	D2 PAM	TRPV1 PAM	ClpP mod	Menin MLL FP FL
1	COc1ccc(C2C3=C(CC(C)(C)CC3=O)N(CCN3CCOCC3)C3=C2C(=O)CC(C)(C)C3)cc1	-2%	?	-5%	2	2	-23%	2.8
2	O=C(COC(=O)/C=C/c1cccs1)Nc1ccc(Cl)cc1F	/	-16%	-5%	-12	/	-2.3%	/
3	CCN(CC)CCN1C(=O)C(O)=C(C(C)=O)C1c1ccccc1[N+](=O)[O-] (stereo not given)	-3%	-69%[inhibitor]	7%	-9	-5	/	-26
4	CCC(=O)N1c2ccc(S(=O)(=O)N3CCN(c4ccc([N+](=O)[O-])cc4)CC3)cc2CC1C (stereo not given)	21%	-1%	3%	-11	5	-3.0%	-1.3
5	CN(Cc1ccccc1)C(=O)c1cc2ccccc2o1	5%	11%	-7%	-3	-7	0.6%	2.6
6	CC(C)[C@H](NS(=O)(=O)c1ccccc1)C(=O)OCC(=O)Nc1ccc2c(c1)OCO2	10%	-20%	-2%	-6	1	-0.9%	2.8
7	O=C(NC1CS(=O)(=O)CC1NCc1ccccc1)c1ccccc1 (stereo not given)	-16%	-40%[inhibitor]	3%	-27	?	-0.7%	4.9
8	CC(C)c1ccccc1NC(=S)NCc1ccncc1	15%	-18%	8%	-3	-13	/	-0.7
9	Cc1ccc(Cl)cc1N1CCN(C(=O)C2CCN(S(C)(=O)=O)CC2)CC1	19%	-1%	-14%	-2	0	/	-3.9
10	O=C(O)COc1ccccc1/C=N/NC(=O)c1cccc(S(=O)(=O)Nc2cccc(Cl)c2)c1	21%	18%	3%	-3	?	/	-0.4
11	O=S(=O)(c1ccc(Cl)nc1)N(Cc1ccccc1)Cc1ccccc1	-6%	-1%	-2%	-1	-2	-0.6%	1.1
12	COc1cccc(CNC(=O)[C@H](C)NC(=O)C2CCN(S(=O)(=O)c3ccccc3)CC2)c1	9%	39%	4%	-5	26	0.4%	-0.1
13	CCN(C(=O)COC(=O)CCOc1ccccc1C)c1c(N)n(Cc2ccccc2)c(=O)[nH]c1=O	/	-31%	2%	-3	/	-1.2%	/
14	O=C(/C=C/c1ccco1)Nc1cccc(-c2nc3ccccc3[nH]2)c1	25µM*	-32%	-20%	-7	24	-3.1%	8.0
15	Cc1ccc(NC(=O)C[n+]2cc(-c3ccccc3)n3c2CCC3)cc1	-20%	47%	-4%	-12	7	0.0%	-2.2
16	COc1ccc(N(C(=O)c2ccc3c(c2)OCO3)C2C=CS(=O)(=O)C2)c(OC)c1 (stereo not given)	17%	6%	-2%	-6	10	-0.8%	/
17	CC(C)CN(Cc1cc(=O)oc2cc3c(cc12)CCCC3)CC(C)C	-1%	6%	2%	-20	-5	-3.7%	2.8
18	CCOc1ccc(CCNC(=O)c2cc(=O)[nH]c3ccc(S(=O)(=O)N(CC)CC)cc23)cc1OCC	5%	0%	5%	-23	15	0.9%	/
19	O=C(Nc1ccccn1)c1ccc(Br)c(S(=O)(=O)N2CCCCC2)c1	18%	-1%	8%	11	-7	13µM*	5.7
20	COc1ccc(C(=O)N/C(=C\c2cn(C)c3ccccc23)C(=O)N2CCOCC2)cc1OC	1%	13%	-13%	-35	-2	0.4%	-3.3
21	Cc1ccc2cccc(OC(=O)c3ccc4c(c3)OCCO4)c2n1	-27%	0%	-8%	-19	-9	-3.3%	4.6
22	CCOc1ccc(CCNC(=O)CSCC(=O)Nc2cccc(C)c2)cc1OCC	/	-6%	-8%	-8	7	4.7%	/
23	CN(C)CCNC(=S)Nc1ccc(Br)cc1	1%	17%[15.4 µM]	-6%	-7	1	-1.3%	-3.6
24	CCN(CC(=O)Nc1c(F)cccc1F)C(=O)CCCNC(=O)c1ccc(Cl)cc1	/	29%	9%	-21	7	1.4%	/
25	Cc1cccc(C)c1NC(=O)CS(=O)CC(=O)NCCCc1ccccc1 (stereo not given)	15%	3%	-1%	-12	-21	1.3%	0.8
26	Fc1cc(Cl)c(OCc2noc(-c3ccsc3)n2)c(Cl)c1	5%	-2%	-2%	-17	8	0.2%	-1.8
27	CC(=O)Nc1cc2c(=O)n(Cc3ccccc3)c(C)nc2cc1N1CCOCC1	10%	3%	-5%	6	7	2.0%	1.4
28	CC(=O)N1CCN(CC(=O)Nc2ccc([N+](=O)[O-])cc2Br)CC1	10%	-7%[15.4 µM]	-5%	-5	3	-0.7%	1.3
29	CCc1cc2c(SCC(=O)Nc3ccc(Cl)cn3)ncnc2s1	1%	-2%	7%	-14	4	-3.6%	5.7
30	Cc1ccc(C)c(-n2c(-c3cccnc3)n[nH]c2=S)c1	-22%	-13%	-5%	-9	3	/	0.1

# Taken from above:
# Menin MLL FP FL with `O=S(=O)(c1ccc(Cl)nc1)N(Cc1ccccc1)Cc1ccccc1` = 1.1
# Menin MLL FP FL with `CC(C)[C@H](NS(=O)(=O)c1ccccc1)C(=O)OCC(=O)Nc1ccc2c(c1)OCO2` = 2.8
# Menin MLL FP FL with `Cc1cccc(C)c1NC(=O)CS(=O)CC(=O)NCCCc1ccccc1` (stereo not given) = 0.8

# Single records, from the list above.
# Listed for Cc1ccc(NC(=O)C[n+]2cc(-c3ccccc3)n3c2CCC3)cc1 → Sfp inh = -20%; gsp agonist = 47%; gsp antagonist = -4%; D2 PAM = -12; TRPV1 PAM = 7; ClpP mod = 0.0%; Menin MLL FP FL = -2.2
# Listed for CCN(CC)CCN1C(=O)C(O)=C(C(C)=O)C1c1ccccc1[N+](=O)[O-] (stereo not given) → Sfp inh = -3%; gsp agonist = -69%[inhibitor]; gsp antagonist = 7%; D2 PAM = -9; TRPV1 PAM = -5; ClpP mod = /; Menin MLL FP FL = -26

# Results in sequence from the entries so far:
# D2 PAM, compounds 16–22, in order: -6, -20, -23, 11, -35, -19, -8

# Following part:
no.	molecule	Sfp inh	gsp agonist	gsp antagonist	D2 PAM	TRPV1 PAM	ClpP mod	Menin MLL FP FL
31	COc1ccc(OC)c(-c2csc(N(C)C(=O)Cc3ccccc3)n2)c1	8%	5%[15.4 µM]	/	8	5	/	3.3
32	Cc1cccc(CCNc2nc3ccc(C)cc3n3cnnc23)c1	-8%	13%	8%	4	7	-16%	-0.9
33	COc1ccc(-c2cc(C(=O)Nc3c(C)n(C)n(-c4ccccc4)c3=O)c3ccccc3n2)c(OC)c1	-2%	7%	1%	-1	13	-3.6%	/
34	CCN(CC)C(=O)c1cnn(-c2ccccc2)c1NC(=O)c1cccc(F)c1	12%	1%	0%	4	15	-5.0%	2.7
35	COc1ccc(NC(=O)Cc2ccccc2)cc1	-7%	-7%	9%	-4	-12	-2.0%	-1.2
36	CC1(c2ccccc2)NC(=O)N(CC(=O)NCc2ccc3c(c2)OCO3)C1=O (stereo not given)	17%	0%	12%	-1	?	/	-4.3
37	CC(NC(=S)NCCCN1CCOCC1)C1CC2CCC1C2 (stereo not given)	24%	-14%[15.4 µM]	-7%	-7	-7	/	4.4
38	CC(Sc1nc2cc(Cl)ccc2s1)C(=O)Nc1cccc(S(=O)(=O)N2CCOCC2)c1 (stereo not given)	13%	1%[15.4 µM]	-20%	2	13	-0.1%	-1.1
39	CCOCCCNC(=O)C1CCN(S(=O)(=O)CC)CC1	16%	?	11%	-17	12	-6.4%	4.4
40	OC(COc1ccc2c(c1)OCO2)CN1CCCC1 (stereo not given)	19%	?	11%	-6	-2	0.9%	-1.7
41	Cc1nn(C)c(C)c1/C=C1/SC(=S)NC1=O	-29%	-8%	-10%	-13	-2	-1.3%	0.7
42	O=C(CCN1C(=O)/C(=C/c2ccccc2Cl)SC1=S)NNC(=O)c1cccnc1	2%	3%[15.4 µM]	-17%	-5	?	-0.6%	0.7
43	CO/N=C(\C(=O)N[C@@H]1C(=O)N2C(C(=O)O)=C(COC(C)=O)CS[C@H]12)c1csc(N)n1 (stereo in doubt)	16%	/	-5%&17%&4%	0&-4&-5	1	-0.7%&-2.9%&-1.9%	-3.7&0.8
44	COc1ccc(-c2cccc(-c3cc(=O)oc4cc(OC)cc(OC)c34)c2)cc1	/	/	5%	-4	/	?	/
45	COC(=O)N/N=C/c1ccc(-c2cc(Cl)cc(Cl)c2)o1	-21%	6%	-26%	-15	-3	-22%	/
46	CCC(C)(C)n1nnnc1CN1CCC(O)(c2cccc(C(F)(F)F)c2)CC1	/	13%	10%	-2	/	?	/
47	COc1ccc(CCNS(=O)(=O)c2ccc3c(c2)oc(=O)n3C)cc1OC	11%	5%	6%	1	0	-4.3%	-1.1
48	Cc1ccccc1OCCC(=O)Nc1cc(S(=O)(=O)N2CCOCC2)ccc1OC(C)C	11%	-13%	-3%	4	-6	0.8%	/
49	CC1C(=O)N2CCCc3cc(NS(=O)(=O)c4ccc(F)cc4)cc1c32 (stereo not given)	/	6%[15.4 µM]	0%	0	15	/	/
50	COc1ccc2nc(-c3ccccc3)cc(OC)c2c1	3%	-1%[15.4 µM]	-22%	-3	5	1.1%	2.0
51	CC(C)CN(C(=O)CSc1nc2ccccc2[nH]1)C1CCS(=O)(=O)C1 (stereo not given)	/	?	6%	0	/	-1.2%	/
52	NC(=O)C1(N2CCCCC2)CCN(C(=S)Nc2ccc(F)cc2)CC1	13%	2%	15%	-6	14	-7.6%	2.7
53	CCOC(=O)c1c(NC(=O)c2ccoc2C)sc2c1CCC2	25µM*	0%	3%	-7	-19	35µM*	-0.7
54	C[C@@H]1CC[C@@]2(O[C@@H](CCO)C[C@@H](O)[C@@H]2O)O1	/	/	8%	-32	/	-2.5%	/
55	Cc1cc(NC(=O)CCN2C(=O)c3ccccc3C2=O)no1	-6%	-5%	5%	-5	1	-0.4%	-0.5
56	O=C(NNC(=O)c1ccc2ccccc2c1)Nc1ccc(F)cc1	7%	8%	11%	-12	6	0.5%	-2.4
57	CCOC(=O)C(CN1CCCC1)c1ccccc1 (stereo not given)	/	/	1%	-15	-51	2.3%	/
58	CCOc1ccc(NC(=O)c2ccc(CN3CCc4ccccc4C3)cc2)cc1	6%	-48%[inhibitor]	0%	-6	4	/	-4.2
59	CCCc1cc(=O)oc2cc(C)cc(OC(C)C(=O)NCCCN3CCOCC3)c12 (stereo not given)	15%	8%	1%	-14	-10	3.9%	2.4
